Tgondii IFNg – blocks Toxoplasma gondii growth in the presence of IFN-gamma; Toxoplasma gondii growth in IFN-gamma-treated host cells; active compounds read low; reference of the scale not given here; activity change, negative = inhibition, %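 (about 20 µM by stock and volumes)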; 69,000 compounds, 3.8% hits; AID 1259416;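 active means below -70%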;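 further: host cells are HeLa cells infected with Toxoplasma gondii; parasite growth read as luciferase light; one replicate is shown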
The depositor's hits bear a star; i = inactive. Not all compounds are listed; the hit share may differ from the screen's.

Molecule	Tgondii IFNg
CN1C(=O)C(c2cccnc2)CC12CCN(C(=O)c1ccc[nH]1)CC2 (stereo not drawn)	-1
COc1cccc(NC2COC3(CCN(C(=O)c4ccccc4F)CC3)C2)c1 (stereo not drawn)	5
CS(=O)(=O)N1CCOC2(CCCN(c3ccccn3)C2)C1 (stereo not drawn)	-45
COC(=O)c1cc(OC)c(OC)cc1NC(=O)c1cnc(N(C)C)nc1C(F)(F)F	27
Cn1cc(C(=O)C2CCN(C(=O)c3ccccc3F)CC2)c(N)n1	9
Cc1nc(-c2nc(C(=O)NCC3CCCO3)c3ccccn23)cn1Cc1ccccc1 (stereo not drawn)	4
COc1ccc(S(=O)(=O)N2CC[C@H]3[C@H](CO)Nc4ccc(Br)cc4[C@H]32)cc1	3
Cc1ccc(CCC2=NS(=O)(=O)c3ccccc3N2)o1	1
COc1ccc(-c2nc(N3CCC(Cc4ccccc4)CC3)c3ccccc3n2)cc1	18
COc1ccc(OC)c(NC(=O)CN2C(=O)CCc3cc(Br)ccc32)c1	155
COCCCN1CC2(CCCCN2C(=O)COC)CC1=O (stereo not drawn)	4
O=C(COc1ccccc1)Nc1ccccc1N1CCCC1	35
CCc1nnc2n1CC(c1ccc(NC(=O)c3cccc(OC)c3)cc1)CC2 (stereo not drawn)	22
CC(=O)Nc1ccc(NC(=O)COc2ccc(C)cc2)cc1	-20
COc1cc(-c2coc3cc(OCc4ccccc4)c(OC)c(O)c3c2=O)cc(OCc2ccccc2)c1OC	-79*
O=C(NCCc1csc(-c2ccc(F)cc2)n1)c1ccc(F)c(F)c1	-28
Cc1cccc(NC(=O)C(=O)NCCc2csc(-c3cccc(F)c3)n2)c1C	-21
Nc1ncnc2c1c1nc3ccccc3nc1n2Cc1ccccc1	-1
COc1c(C)cc(C(=O)C2CCCN(Cc3cc(=O)[nH]c(=O)[nH]3)C2)cc1C (stereo not drawn)	3
COc1ccccc1NC(=O)C(=O)NCCc1sc(-c2ccccc2)nc1C	146
CN(C)Cc1cnc2n1CCN(Cc1nccs1)CC2	9
COCC1CN(C(=O)Cc2ccsc2)Cc2ccnn2C1 (stereo not drawn)	8
CC(C)NC(=O)N1CCC2(CC1)CC1(CCN(C(=O)N(C)C)CC1)C(=O)N2C	6
CCN1CCC2(CC1)OC(=O)C(C)=C2C(=O)NCc1ccc(Cl)cc1	15
COc1ccccc1C1(NCc2cn(CCC(N)=O)c3ccccc23)CCCC1	43
C/C=C/c1ccccc1[C@@H]1[C@@H](CO)N(C(=O)NC2CCCCC2)[C@H]1C#N	4
COc1ccc(-c2ccc3c(c2)CNCC3)c2cccnc12	-20
Oc1cc(-c2cccnc2)cc2c1OCCN(CCn1ccnc1)C2	-39
Cc1ccc(C(=O)N2CCC(C(=O)NCCc3csc(-c4ccccc4)n3)CC2)cc1C	-41
Cc1ccc(N2C(=O)CC(=O)N(c3ccc(C)c(C)c3)C2=S)cc1C	-4

Remaining list, next part
Molecule	Tgondii IFNg
O=C(C[C@H]1C=C[C@@H](NC(=O)Nc2cccc(F)c2)[C@@H](CO)O1)NCC1CCCCC1	-41
O=C(C[C@@H]1CC[C@H](NC(=O)C2CC2)[C@H](CO)O1)Nc1ccccc1	31
Cc1cc(C)nc(SCC(=O)OCC(=O)Nc2nnc(-c3ccccc3)s2)n1	78
CCCCOc1ccc(C(=O)N2CCN(S(=O)(=O)c3cc4c5c(c3)CCN5C(=O)CC4)CC2)cc1	-42
O=C(Nc1ccc2c(c1)OCCO2)c1c(O)c2cccnc2n(-c2ccc(F)cc2)c1=O	-15
NC(N)=Nc1ccc(Cl)cc1	3
CN1C(=O)c2cc(NC(=O)c3cccc(C(F)(F)F)c3)ccc2OC[C@@H]2O[C@@H](CC(=O)NCCN3CCCC3)CC[C@H]21	-7
CCN(CC)Cc1cnc2c(C(=O)Nc3cccc4cc(C)oc34)cnn2c1	-11
Cc1noc(C)c1S(=O)(=O)N(C)C[C@H]1OCc2cn(nn2)CCCC(=O)N([C@H](C)CO)C[C@H]1C	13
C[C@@H]1O[C@@H](OC[C@H]2OC(Oc3c(-c4ccc(OCCO)c(OCCO)c4)oc4cc(OCCO)cc(O)c4c3=O)[C@H](O)[C@@H](O)[C@@H]2O)[C@H](O)[C@H](O)[C@H]1O (stereo partly drawn)	10
COC(=O)c1c(NC(=O)C2COc3ccccc3O2)sc(C)c1-c1ccccc1 (stereo not drawn)	-68
Cc1cc(CN(C)CC(=O)NCCc2cccc(Cl)c2)n[nH]1	0
Cc1cccc(-c2nc(CSc3nc4c(c(=O)[nH]3)CN(Cc3ccccc3)CC4)c(C)o2)c1	-48
O=C1CC(c2cccc3[nH]ccc23)c2cn[nH]c2N1 (stereo not drawn)	-9
Cc1cc(NC(=O)Nc2ccccc2Oc2ccccc2)c(C(F)(F)F)o1	-47
CCN1CCC2(CC1)OC(=O)C(C)=C2C(=O)N1CCN(c2ccc(Cl)cc2)CC1	11
COc1ccc2cc(C(=O)Nc3ccc(S(N)(=O)=O)cc3)sc(=O)c2c1OC	69
O=C(NCc1ccc2c(c1)CCCO2)c1ccc(C2CCNC2)cc1 (stereo not drawn)	-2
Cc1ccccc1Oc1ncccc1CNC(=O)Cn1cccnc1=O	1
CCO[C@H]1COC[C@@H]1NC(=O)C(=O)N(C)c1ccccc1	5
O=C(Nc1cc(F)ccc1F)N[C@@H]1CC[C@@H](CC(=O)N2CCc3ccccc3C2)O[C@@H]1CO	-28
COc1ccc2c(c1)/C(=N/OC(=O)C13CC4CC(CC(C4)C1)C3)CCC2	41
C=CCOCC1CN(Cc2ccncc2)Cc2nnn(CC3CC3)c21 (stereo not drawn)	-4
Cc1ccc(NC(=O)CN2C(=O)CCc3cc(S(=O)(=O)N4CCCCC4)ccc32)c(C)c1	-4
Cc1cc(C)cc(C2(CNC(=O)c3cc(CC(C)C)[nH]c(=O)n3)CCOCC2)c1	12
COc1cc(Nc2nc3ccccc3nc2NS(=O)(=O)c2ccc(NC(=O)c3ccc(C)c(OC)c3)cc2)cc(OC)c1	-13
COc1ccc(-c2ccccc2C(=O)NC(C)C)cc1F	13
Nc1c(C(=O)c2ccc(Cl)cc2)sc2nnc(-c3ccccc3)c(-c3ccccc3)c12	4
O=C(CCCCN1Cc2ccccc2C1=O)NC1CCc2ccccc21 (stereo not drawn)	5
O=c1ccc2cc(S(=O)(=O)N(Cc3ccco3)CC3CCCO3)ccc2[nH]1 (stereo not drawn)	30

(next part)
Molecule	Tgondii IFNg
Cc1ccc(C(=O)N2CCC3(CC(OCC4CC4)CO3)C2)cn1 (stereo not drawn)	-43
CC(C)N(C)[C@@H]1CCN(C(=O)c2cnccn2)[C@@H]1Cc1cnn(C)c1	2
CC(C)c1nc(-c2cc(C(=O)Cc3ccccn3)c3ccccn23)cs1	1
c1ccc(-c2nc3cc(Cc4ccc5oc(-c6ccccn6)nc5c4)ccc3o2)nc1	-21
Cc1cccc(N2CCN(C(=O)c3cncc(N(C)S(=O)(=O)c4ccccc4)c3)CC2C)c1 (stereo not drawn)	-11
COC(=O)c1cn(C(=O)c2cnn3c(C(F)F)cc(-c4ccccc4)nc23)c2ccccc12	9
COc1cccc(-c2ccccc2[C@@H]2[C@@H](CO)N(C(=O)Cc3ccccc3)[C@H]2C#N)c1	-13
COc1ccc(CN2CCN3CCN(C)C(=O)C3C2)cc1F (stereo not drawn)	2
CN(C)CCn1c2c(ccc1=O)CCN(Cc1cccs1)CC2	-20
COc1ccccc1CN(CCCn1ccnc1)Cc1cn(C)c2ccccc12	28
Cc1ccc(NC(=O)Nc2ccc(-c3nc(-c4ccccc4)co3)cc2)cc1F	-1
Cc1ccc(S(=O)(=O)NCc2nc(-c3ccccc3)oc2C)c(C)c1	120
Cn1cc(CNC2CCC3(CCC(=O)N3)CC2)cn1 (stereo not drawn)	54
COc1cc(C(CC(=O)O)CC(=O)N2CCC(n3cccc3)CC2)cc(OC)c1OC (stereo not drawn)	37
C[C@@H]1CCCCO[C@@H](CN(C)CC2CCCCC2)[C@H](C)CN([C@H](C)CO)C(=O)c2cc(NS(C)(=O)=O)ccc2O1	31
CCSc1nsc(NC(=O)CN2CCC(Oc3cccc(F)c3)CC2)n1	12
O=C(N1CCCCC1)C1(Cc2cc(C3CCOC3)no2)CCCNC1 (stereo not drawn)	3
Cc1cc(Cc2ccc(C(F)(F)F)cc2)cc(C2CCCN2Cc2ncc[nH]2)n1 (stereo not drawn)	-46
CCS(=O)(=O)N1CCOCC2(CC(CN3CCCC3)CO2)C1 (stereo not drawn)	-2
COc1ccc(C(=O)Nc2ccc3c(c2)C(=O)N(C)[C@@H]2CC[C@H](CC(=O)NCC4CC4)O[C@@H]2CO3)cc1	-19
CN1CCN(c2cc(C(=O)NCCS(=O)(=O)c3ccc(F)cc3)ccn2)CC1	-24
CC(C)OC[C@H]1CCC[C@]12CN(S(=O)(=O)c1cn(C)cn1)CCO2	-3
CCCC(=O)N1CC2(C1)CN(C(=O)Nc1cccc(F)c1)[C@@H](CO)c1c2c2ccc(OC)cc2n1C	115
O=C(ON(Cc1c(F)cccc1Cl)Cc1c(F)cccc1Cl)c1cccs1	-10
COc1ccc(-c2nc(C)c(CCNC(=O)c3cccc(Cl)c3)s2)cc1OC	i
Nc1nc(C(F)(F)F)nn1CC(=O)N1CCC(COc2ccc(Cl)cc2)CC1	-32
CCCCCCCCCCCCCCCC(=O)C1C(=O)OC(CO)C1=O (stereo not drawn)	11
CN1CCn2c(-c3cccc(F)c3)cnc2C12CCN(c1ncccn1)CC2	53
CC(C)N1CCOCC1c1nccc(NCc2cccnc2)n1 (stereo not drawn)	-30
CN(C)C(=O)CN1CCN(C(=O)C2CC(=O)N(c3cccc(F)c3)C2)CC1 (stereo not drawn)	5

The closing six records of the part above open the next one.
Molecule	Tgondii IFNg
COc1ccc(-c2nc(C)c(CCNC(=O)c3cccc(Cl)c3)s2)cc1OC	i
Nc1nc(C(F)(F)F)nn1CC(=O)N1CCC(COc2ccc(Cl)cc2)CC1	-32
CCCCCCCCCCCCCCCC(=O)C1C(=O)OC(CO)C1=O (stereo not drawn)	11
CN1CCn2c(-c3cccc(F)c3)cnc2C12CCN(c1ncccn1)CC2	53
CC(C)N1CCOCC1c1nccc(NCc2cccnc2)n1 (stereo not drawn)	-30
CN(C)C(=O)CN1CCN(C(=O)C2CC(=O)N(c3cccc(F)c3)C2)CC1 (stereo not drawn)	5
Cc1ccc(-c2nc3c(s2)CN(S(=O)(=O)c2ccc(C)c(C)c2)CC3)cc1	-25
O=C(NCc1cc(F)cc(F)c1)c1c(O)c2cccnc2n(-c2ccccc2)c1=O	-91*
Cc1cc(C)c(CN2CCN(Cc3ncccc3C)CC2)c(-n2cccn2)c1	-26
O[C@@H](CNC[C@H](O)c1ccccc1)c1ccccc1	2
COc1ccccc1C#Cc1ccc2c(c1)[C@H]1NCC[C@H]1[C@@H](CO)N2	-10
O=C(c1ccncc1)N1CCC2(CCCN(c3ncc(F)cn3)C2)C1 (stereo not drawn)	3
COc1ccc(-c2nc(Cn3nnc(C(=O)Nc4ccccc4C)c3C)c(C)o2)c(OC)c1	32
Cc1ccc(-c2ccc(C(=O)N(C)CC(O)CO)cc2)o1 (stereo not drawn)	1
Cc1ccc(-c2coc(-c3ccc(NC(=O)c4cccs4)cc3)n2)cc1	-29
COCCNC(=O)C[C@H]1CC[C@@H]2[C@H](COC[C@H](O)CN2Cc2ccc(Cl)c(Cl)c2)O1	10
O=C(NC1CCC(n2cnnc2)CC1)c1ccccc1-n1cncn1 (stereo not drawn)	12
CCOc1cccc(CNC(=O)c2c(O)c3cccnc3[nH]c2=O)c1	9
COc1cc2c(cc1CN(CCCn1ccnc1)CC1CC=CCC1)OCO2 (stereo not drawn)	-7
COc1ccc2c(c1)C(=O)N(CCc1ccc(S(=O)(=O)NC(=O)NC3CCCCC3)cc1)C(=O)C2(C)C	-59
CN(C)S(=O)(=O)N1CCN(C(=O)Cn2c(-c3ccc(F)cc3)cc3cccnc32)CC1	-67
Cc1ccc(C)c(S(=O)(=O)N2CCC3(CC2)Nc2ccc(Cl)cc2-n2cccc23)c1	-22
CCN1c2cc(C)ccc2-n2cccc2C12CCN(C(=O)NCC(=O)OC)CC2	67
C[C@@H]1CN([C@@H](C)CO)C(=O)c2cc(NC(=O)C3CCCCC3)ccc2O[C@H]1CN(C)Cc1ccc2c(c1)OCO2	22
Nc1nc(C2CCN(C(=O)CCc3ccccc3)CC2)ccc1C(=O)NCc1ccccc1	-70
CN(C)C1CC2(CCN(C(=O)c3cccn3C)CC2)C1	-43
CCS(=O)(=O)N1CCOC2C(COCc3nccs3)CCC21 (stereo not drawn)	95
CC(C)c1cc(C2CCCN2Cc2cccc(C(=O)Nc3cn(C)nn3)c2)no1 (stereo not drawn)	-16
Cc1ccc(Cl)cc1NC(=O)Cn1ncc2c(N3CCCC3)ncnc21	-13
O=C(NCCN1CCc2ccccc2C1)c1cn2c(n1)CSCC2	-35

4 entries from above in another layout.
CC(C)c1cc(C2CCCN2Cc2cccc(C(=O)Nc3cn(C)nn3)c2)no1 (stereo not drawn)
  Tgondii IFNg: -16

COCCNC(=O)C[C@H]1CC[C@@H]2[C@H](COC[C@H](O)CN2Cc2ccc(Cl)c(Cl)c2)O1
  Tgondii IFNg: 10

CCS(=O)(=O)N1CCOC2C(COCc3nccs3)CCC21 (stereo not drawn)
  Tgondii IFNg: 95

O=C(c1ccncc1)N1CCC2(CCCN(c3ncc(F)cn3)C2)C1 (stereo not drawn)
  Tgondii IFNg: 3

Screens (PubChem)
